Source: PubChem BioAssay (several laboratories)
Beta cell apopt: blocks beta cell apoptosis. INS-1E cytokine-induced death, ATP luminescence, 48 h; percent of positive-control rescue, neutral wells zero. protection from apoptosis, % (concentration not given with the values). 300,000 compounds, 0.8% hits. AID 435005;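 active = all replicates at 75% or more, or half of them and the mean; inconclusive = half reach 75% but not the mean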;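 note: 0% = cytokine-treated negative control wells and 100% = positive control rescue; higher means more ATP so stronger rescue from cytokine killing; wells of about 40 µL received 100 nL stock; the first replicate is given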
Vif A3G: HIV-1 Vif–A3G interaction blockers – biochemical, TR-FRET, GST-Vif 1-94, biotin-A3G peptide, dose response retest, primary screen (AID 1117319) | TR-FRET GST-Vif / biotin-A3G peptide binding; higher % means a stronger effect; test concentration not given here; strong numbers were not always called active | 260,000 compounds, 0.57% hits | one-dose inhibition, %; IC50 in µM for titrated hits;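 active = above the screen mean plus three standard deviations and confirmed in dose response; inconclusive = results disagree or hit not tested in dose response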;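 note: Vif residues 1-94 fused to GST binding biotinylated APOBEC3G peptide 110-148; 0% = full assay without inhibitor and 100% = GST in place of GST-Vif; retest series ran down from 100 µM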
AF4-AF9 inh: inhibitors of human MLL-AF4/AF9 interaction. P42568. AlphaScreen, biotin-AF4 peptide binding to FLAG-AF9. inhibition, % at 10 µM. 350,000 compounds, 0.47% hits;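 active = every replicate reaching a set inhibition limit, whatever the replicate mean, cut at about 25% in these data; inconclusive = mean inhibition reaches that limit but some replicates miss it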;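 note: 0% = plate neutral control median and 100% = total signal loss; the record names both 10 and 1 µM as test concentration; the first replicate is given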
Target sequence (P42568 whole entry, looked up): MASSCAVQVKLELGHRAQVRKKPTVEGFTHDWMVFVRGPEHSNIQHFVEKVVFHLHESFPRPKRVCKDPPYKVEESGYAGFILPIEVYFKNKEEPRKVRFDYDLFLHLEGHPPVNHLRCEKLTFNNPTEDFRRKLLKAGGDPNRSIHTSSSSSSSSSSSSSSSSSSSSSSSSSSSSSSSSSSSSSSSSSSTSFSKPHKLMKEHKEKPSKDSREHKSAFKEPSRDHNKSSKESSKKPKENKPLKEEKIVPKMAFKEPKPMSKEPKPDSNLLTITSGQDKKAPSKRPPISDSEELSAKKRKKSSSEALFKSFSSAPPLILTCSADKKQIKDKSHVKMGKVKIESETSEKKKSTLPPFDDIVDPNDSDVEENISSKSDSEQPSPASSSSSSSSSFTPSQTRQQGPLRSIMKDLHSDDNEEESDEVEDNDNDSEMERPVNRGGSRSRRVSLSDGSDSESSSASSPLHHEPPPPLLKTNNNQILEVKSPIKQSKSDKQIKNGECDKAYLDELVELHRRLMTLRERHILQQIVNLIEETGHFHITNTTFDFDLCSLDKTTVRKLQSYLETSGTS
RanGTP-Imp inh: inhibitors of RanGTP-importin-beta interaction, primary screen, biochemical, FRET, CFP-Ran, YFP-importin-beta, homogeneous; cell-free CFP-Ran/YFP-importin-beta FRET ratio; inhibition, % (concentration not given with the values); 300,000 compounds, 1.1% hits;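 active = most replicates above 15%; inconclusive = exactly half above 15%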;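 note: 0% = DMSO wells and 100% = Ran loaded with GDP instead of GTP; wells of about 40 µL received 100 nL stock; the first replicate is given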
LANA-H2B inh: blocks KSHV LANA binding to histone H2A/H2B; Q9QR71; cell-free LANA-H2A/H2B peptide, fluorescence polarization; inhibition, % (concentration not given with the values); 320,000 compounds, 0.6% hits; AID 2629; in the data active = inhibition mostly above about 10%, no sharp cut-off; inactive = mostly below about 6.7%;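 note: stock transfer was 7.5 nL into about 10 µL; 0% = median of vehicle wells and 100% = median of positive control wells; one replicate is shown; the record names a cut of 25% in any replicate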
Calb FLC: C. albicans growth modulation with fluconazole; 300,000 compounds, 0.57% hits; growth inhibition, % (no concentration beside the values); AID 1979; C. albicans CaCi-2 (fluconazole-resistant clinical isolate) + fluconazole, Alamar Blue growth, 48 h;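 active = most replicates above 75%; inconclusive = exactly half above 75%; inactive = most below 75%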;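 note: all wells also contain fluconazole at 8 µg/ml as a sub-toxic cotreatment; 0% = median of DMSO wells and 100% = median of geldanamycin control wells; wells of about 8 µL received 7.5 nL stock; the first replicate is given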
Bfl-1 A1 inh: inhibitors of the anti-apoptotic protein A1, read as caspase activation; MEF A1-2A-BIM cells, Caspase-Glo 3/7 luminescence, 3 h; percent of clofoctol response, vehicle zero; caspase activation, % (concentration not given with the values); 330,000 compounds, 0.066% hits; AID 2462;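 active = over half of replicate activation scores above 10%, or exactly half above 10 with the replicate mean above 10; inconclusive = replicate mean below 10 yet half the replicates above 10; inactive = over half of replicates below 10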;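 note: wells of about 30 µL received 50 nL stock; many hits fall short of the cut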
T cruzi repl: T. cruzi replication inhibition; inhibition, % (concentration not given with the values); AID 1885; T. cruzi beta-gal in NIH3T3, luminescence, 90 h; 300,000 compounds, 1.4% hits;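 active = mean inhibition across valid replicates above about 55%, limit read from the data; inconclusive = mean below that limit but half or more replicates reach it; inactive = mean below it, under half of replicates reach it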;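 note: signal also drops with host cell toxicity which is not excluded here; 0% = plate median of DMSO wells and 100% = zero luminescence signal; higher percent means less beta-gal luminescence so fewer parasites; stock transfer was 50 nL into about 50 µL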
An asterisk follows results filed as active; ? = inconclusive; nt = no result given; & = joins results of further samples.

SMILES	Beta cell apopt	Vif A3G	AF4-AF9 inh	RanGTP-Imp inh	LANA-H2B inh	Calb FLC	Bfl-1 A1 inh	T cruzi repl
CN1CCN(C(=O)CCn2nc(-c3ccccc3)c3ccccc3c2=O)CC1	0	-6%	nt	0.5	2.9	-1	0.3	-10
CCN1C(=O)N[C@@H](c2ccco2)C(C(=O)OC)=C1C	-1	nt	0.9	1.2	1.5	-35	-0.7	3
COc1cccc(CN2CC(C(=O)N(C)Cc3[nH]c4ccccc4c3C)CCC2=O)c1 (stereo not drawn)	-2	nt	9.2	-3.7	1.5	4	0.0	11
COC(=O)c1sc(NC(=O)CSc2nc3cccnc3n2C2CCCCC2)nc1C	-3	9%	nt	0.7	-10.0	-3	0.6	-16
O=C(NC1CC2CCCC(C1)N2C(=O)Nc1ccc(F)cc1)c1ccccc1 (stereo not drawn)	2	nt	-0.6	3.5	-3.8	-6	0.3	0
CC1(C)CC(=O)C=C(C(=O)N2CCCC(C(=O)c3cccc(C(F)(F)F)c3)C2)O1 (stereo not drawn)	0	nt	1.5	5.8	-2.2	-4	0.3	-3
Cc1ccc2c(c1)N(C(=O)CCC(=O)NCCCN1CC(C)CC(C)C1)CCO2 (stereo not drawn)	-3	nt	-4.3	2.4	0.6	4	0.1	-9
Cc1ccc2c(CSc3nc4ccccc4c(=O)n3CCCO)cc(=O)oc2c1C	4	-14%&-5%	nt	2.6	0.1	-1	-0.3	11
CC(NC(=O)COC(=O)c1cc(=O)[nH]c2ccccc12)c1ccccc1 (stereo not drawn)	-4	nt	6.6	0.0	-3.0	48	1.4	1
Cc1occc1-c1nnc(SCC(=O)NC2CCCC2)n1-c1ccccc1	0	nt	nt	1.6	-0.4	24	0.9	2
COc1ccc(NC(=O)COC(=O)c2ccc(O)cc2)c([N+](=O)[O-])c1	4	-1%	0.1	5.4	-3.6	17	-0.4	5
CC1=NN(C(C#N)c2ccccc2C)C(c2ccccc2)C1 (stereo not drawn)	1	nt	-2.0	0.7	0.2	-8	0.0	1
CC(C)(C)C1CCC2(CC1)C(C#N)=C(SCC(=O)NC1CCCCC1)NC(=O)C2C#N (stereo not drawn)	107*	21%	nt	0.5	4.4	?	-0.7	-5
CCCCNC(=O)c1ccccc1SCC(=O)NC1CCCCCCC1	-1	-6%	3.4	nt	-19	nt	-0.5	nt
Brc1ccc(-c2cn3ccccc3n2)s1	-3	-11%	nt	0.1	-2.5	2	-9.5	-20
COc1ccc(OC)c(/C=N/NC(=S)NCCc2ccccc2)c1	-5	-8%	0.3	6.7	1.8	-10	0.1	7
Cn1c(SCC(=O)Nc2ccc(F)cc2F)nnc1-c1cccnc1	-2	9%	-2.2	0.4	3.1	6	-1.1	-4
CCOC(=O)COc1ccc(/C=C2/C(=O)NN(c3ccc(F)cc3)C2=O)cc1OC	0	6%	-0.1	0.0	-1.6	-18	1.0	1
COc1ccc(/C=C(\C#N)C(=O)OCC(=O)N2CC(C)OC(C)C2)cc1 (stereo not drawn)	-7	-1%	-0.7	1.6	-1.4	-6	-1.4	-6
Cc1ccc(NC(N)=S)cc1	-6	-5%	-6.0	3.8	2.3	27	0.3	-11
Cc1nc(NC(=O)C23CCC(C)(C(=O)O2)C3(C)C)sc1C (stereo not drawn)	1	22%	nt	-2.4	-0.7	-4	-0.4	-11
Cc1ccc(C)c(S(=O)(=O)N2CCN(CC(=O)Nc3cc(C)on3)CC2)c1	-2	3%	nt	-1.9	3.6	6	1.6	12
CC(C(=O)Nc1sc2c(c1C(=O)NCC1CCCO1)CCC2)N1C(=O)c2ccccc2C1=O (stereo not drawn)	3	28%	-3.4	2.8	1.8	10	0.1	-9
O=C(OCc1ccc([N+](=O)[O-])cc1Cl)c1cnccn1	-5	-5%	0.4	-1.5	0.1	6	-0.2	-3
CC(=O)Cc1nsc(NC(=O)c2ccccc2Cl)n1	0	-3%	-1.4	nt	-1.2	17	-0.2	-12
CC(=O)c1c(COC(=O)c2ccccc2Cl)nc2ccccc2[n+]1[O-]	-2	-6%	14	1.0	-3.6	4	1.2	-2
COc1ccc(-n2c(SCC(=O)N3CCOCC3)nc(O)c(Cc3ccccc3)c2=O)cc1	4	5%	nt	5.1	2.6	-1	-0.7	-12
Nc1nonc1C(=O)NCCNCc1ccccc1OCc1ccc(F)cc1	-1	10%	5.9	18*	2.1	-2	-0.3	-20
Cn1c(=O)c(Cc2ccccc2)c(O)c2ccccc21	-1	6%	-21	-3.4	-8.6	-3	-0.3	-12
N#Cc1sc2nc(-c3ccccc3)cc(C(F)(F)F)c2c1N	nt	nt	-1.1	-6.2	nt	0	nt	6

RanGTP-Imp inh: entries above that show a hit.
mol	Vif A3G	AF4-AF9 inh	RanGTP-Imp inh	LANA-H2B inh
Nc1nonc1C(=O)NCCNCc1ccccc1OCc1ccc(F)cc1	10%	5.9	18*	2.1

Following part.
SMILES	Beta cell apopt	Vif A3G	AF4-AF9 inh	RanGTP-Imp inh	LANA-H2B inh	Calb FLC	Bfl-1 A1 inh	T cruzi repl
O=C(O)CN1C(=O)/C(=C\c2cn(-c3ccccc3)nc2-c2ccccc2)SC1=S	2	nt	nt	3.0	0.8	6	0.1	-2
COc1ccc(NC(=O)C2C3CCC(O3)C2C(=O)O)cc1OC (stereo not drawn)	-5	nt	-14	7.3	0.8	-10	0.7	-10
O=C(Nc1ccccc1)/C(=C\c1cccs1)NC(=O)c1ccccc1	-1	-3%	nt	1.4	-0.6	0	0.8	4
COc1ccc(CC(=O)OCC(=O)NC2CCCCC2)cc1	-1	nt	-1.3	nt	2.3	nt	0.3	nt
COc1cccc(-c2cc(C(F)(F)F)nc(N3CCC(C)CC3)n2)c1	2	-5%	nt	-1.7	-0.6	2	0.1	17
CCN1CCOC(CC(=O)Nc2ccc([N+](=O)[O-])cc2)C1=O (stereo not drawn)	-10	-5%	nt	4.1	2.2	-8	2.5	-5
COc1ccc(-c2noc(N3CCC(C(=O)NCCCN4CCC(C)CC4)CC3)n2)cc1	7	nt	-2.0	1.9	-0.2	6	0.4	-7
CCc1ccc(CNC(=O)CCC(=O)N2Cc3cccc(OC)c3Oc3ncccc32)cc1	0	nt	0.7	2.8	-4.4	85*	-1.3	2
Cc1ccc(C)c(NC(=S)NCc2ccccc2)c1	nt	72%	0.1	0.0	7.2	-20	0.7	-2
CCOc1cc(/C=C2\SC(=S)N(N3CCOCC3)C2=O)ccc1O	0	-1%	-2.2	-6.8	-3.7	-2	-0.2	-7
C=CCN1C(=NC(=O)COc2ccc(Cl)cc2)SC2CS(=O)(=O)CC21 (stereo not drawn)	-2	nt	-1.5	1.7	-6.4	-4	0.3	-5
CCOC(=O)C1(c2ccccc2)NC(c2ccccc2C)C2C(=O)N(c3ccc4c(c3)OCO4)C(=O)C21 (stereo not drawn)	3	24%	nt	-1.8	1.5	-4	0.9	11
CCOC(=O)N1CCN(/C=C(\C#N)c2nc3ccccc3s2)CC1	3	15%	nt	21*	10	13	-0.1	-7
c1ccc2c(c1)CCN(C1CCCCC1)C2	-6	-2%	3.3	?	-2.2	-8	0.7	15
O=C(COC(=O)/C=C/c1cccc(Br)c1)NCCC1=CCCCC1	0	12%	nt	?	-2.1	-1	1.0	-17
CC(C)NC(=O)CN1CCC(c2nc3ccccc3[nH]2)CC1	nt	nt	0.9	0.0	5.2	4	1.6	12
COc1cc(CNCc2ccccn2)ccc1OCc1ccccc1Cl	4	14%	10	0.6	2.8	12	0.3	5
Clc1ccc(/C=C/c2nc3ccccc3[nH]2)cc1	31	1%	nt	5.0	-2.2	-4	-7.2	33
CC1CC(C)CN(c2ccc(-n3cnnn3)cc2[N+](=O)[O-])C1 (stereo not drawn)	-1	-3%	nt	-2.2	2.0	-10	1.9	19
CN(C)S(=O)(=O)c1ccc(S(=O)(=O)N2CCN(CCC#N)CC2)cc1	-6	-3%	-2.8	0.9	-0.5	-1	0.1	-9
CN(CC(=O)Nc1ccccc1Cl)C(=O)c1cc(C2CC2)nn1-c1ccccc1	-3	1%	-2.0	nt	-1.5	nt	0.1	nt
Cc1ccc(S(=O)(=O)N2CCC(C(=O)OCC(=O)N(C)C3CCCCC3)CC2)cc1C	nt	-5%	4.1	4.7	-4.4	1	0.3	-5
Cc1ccc(NC(=O)CCN2C(=O)c3cccc4cccc(c34)C2=O)cc1	-3	2%	-3.0	-2.5	-0.9	7	0.2	16
CCOC(=O)c1c(S(=O)(=O)NCc2ccc(C)o2)c(C)n(C)c1C	-4	8%	3.7	2.6	-5.0	-27	0.5	-8
O=C(NCC1OCCc2ccccc21)c1ccco1 (stereo not drawn)	-1	-1%	nt	-3.3	0.3	5	0.2	-1
COc1cc2c(cc1OC)C(c1ccccc1OC(C)C)CC(=O)N2 (stereo not drawn)	-2	nt	1.3	?	-1.5	-2	0.9	9
NS(=O)(=O)c1ccc(CCNC(=O)c2cccc(OC(F)F)c2)cc1	-5	2%	1.8	4.8	-1.0	7	-0.3	-2
O=C(O)CC(NC(=O)COc1ccccc1)c1cccc([N+](=O)[O-])c1 (stereo not drawn)	-2	-2%	-0.5	3.1	-2.0	-9	0.4	-7
O=C(Nc1cccc(O)c1)C(=O)Nc1ccccn1	18	-11%	1.9	4.2	3.1	6	-8.9	-6
O=C1C=C(c2ccccc2)C[C@@H](c2ccc3c(c2)OCO3)C1	0	nt	7.4	nt	-0.7	nt	1.0	nt
Cn1c(=O)c2c(ncn2CC(=O)N2CCc3ccccc3C2)n(C)c1=O	1	3%	nt	-0.8	-4.7	-4	0.0	-14
Cc1ccccc1CCN1CCCC(CN(C)CC(C)(C)C)C1 (stereo not drawn)	nt	nt	-0.3	0.2	-4.9	2	0.5	36
COC(=O)c1ccc(NC(=S)NC2CCCCC2)cc1	-1	0%	nt	-0.4	1.8	-7	0.7	-1
COC(=O)CSc1nnc(-c2ccccn2)n1N	-3	-2%	-0.3	2.2	-5.5	7	-0.1	-21
Cc1cc(Cl)nc(-c2ccccc2O)n1	-1	-5%	0.0	-1.2	0.0	5	-0.6	9
FC(F)(F)c1cc(CCN2C(=S)NC[C@@H]2CC2CCCCC2)cc(C(F)(F)F)c1	7	?	-1.2	-1.6	2.7	-4	0.0	29
CN(C)S(=O)(=O)c1ccc(N2CCCC2)c(C(=O)N2CCC(C(N)=O)CC2)c1	-3	-6%	-26	1.0	-2.0	-10	1.0	-7
Cc1ccc(NC(=O)CCc2ccc(C)o2)cc1	2	-3%	-0.9	0.9	1.3	22	1.7	-2
COc1ccc(Cl)cc1NC(=O)C/C(C)=N/NC(=O)c1ccc(O)cc1	-8	-5%	-2.0	6.0	-2.3	2	0.8	13
COc1cc(S(=O)(=O)N2CCOCC2)ccc1NC(=O)CN1c2cccc3cccc(c23)S1(=O)=O	3	10%	6.5	-0.4	-3.7	-7	0.7	-13
CC(=O)Nc1ccc(NC(=O)CCCSc2nc3ccccc3[nH]2)cc1	-1	15%	-18	12	-13	-1	-0.5	-8
COc1ccc(-n2c(=O)c(CCC(=O)NCCc3ccccc3F)nc3ccccc32)cc1	-4	nt	?	nt	6.2	nt	-0.4	nt
